StopGo FLuc: FMDV 2A StopGo reporter, firefly signal | HEK cells with a luciferase reporter of 2A StopGo recoding | 120,000 tested, 0.23% active | Potency, µM (doses to about 57.5 µM), for inactives: top-dose signal change, negative = less light; active = well fitted falling curve with a large enough effect; inconclusive = small, poorly fitted or top-dose-only effect; inactive = no such curve, though single readings can be large or run the other way; further: nearly all actives have a fitted effect of over 60% in size; overnight with compound
StopGo RLuc: lowers the Renilla signal of an FMDV 2A StopGo reporter | HEK cells with a luciferase reporter of 2A StopGo recoding | Potency, µM (top dose mostly 57.5 µM), for inactives: top-dose signal change, negative = less light | 120,000 tested, 0.32% active | AID 1745857; active means well fitted falling curve with a large enough effect; inconclusive means small, poorly fitted or top-dose-only effect; inactive means no such curve, though single readings can be large or run the other way; further: nearly all actives have a fitted effect of over 55% in size; overnight with compound
* hit, by the source's call; ? = inconclusive; & = joins results of further samples; [ ] = another dose, or the depositor's remark. On the % scale 0 is the no-effect control and ±100 the full control effect; potency means the concentration at half of the fitted maximal effect. Random draw from the library; about 0.55% have a hit in one of these screens.

no.	SMILES	StopGo FLuc	StopGo RLuc
1	CC1(C)CC(=O)C2=C(C1)N(Cc1ccccc1)C(CCC1CCCCC1)=NC2(C(F)(F)F)C(F)(F)F	14%	4%
2	O=C(c1c(F)cccc1F)N(Cc1ccc2[nH]ccc2c1)C1CC1	0%	63%[activator]
3	Cc1cc2nc(C)n(CCOc3ccccc3)c2cc1C	46%[activator]	-1%
4	Cc1ccc(-n2nc(C(=O)N3CCN(c4ccccc4)CC3)c(=O)n(C)c2=O)cc1	-7%	-8%
5	Nc1nnc(N)c2c1no[n+]2[O-]	-15%	-4%
6	Cc1cc(NC(=O)N(Cc2ccco2)C2CCCC2)no1	2%	-5%
7	NC(=O)c1ccc(-c2nc(CSc3ccc4c(c3)OCCCO4)cs2)cc1	?	?
8	CCC(C)NC(=O)c1cn(CC)c2ccc(S(=O)(=O)N3CCCCC3)cc2c1=O (stereo not drawn)	-11%	-10%
9	CCOc1c(C(=O)OC)sc2ccc(NC(=O)c3ccccc3F)cc12	6%	74%[activator]
10	COc1cccc(CNC(C)C)c1OCc1ccccc1	-11%	-14%
11	Cc1cccc(NC(=O)c2oc3ccc(S(=O)(=O)N(C)C4CCCCC4)cc3c2C)c1C	?	-14%
12	C=CCN1CCN(c2nc3c(c(=O)[nH]c(=O)n3C)n2Cc2cc(C)ccc2C)CC1	0%	-1%
13	O=C(CN1C(=O)CSc2ccc(S(=O)(=O)N3CCCC3)cc21)NCc1ccc(F)cc1Cl	2%	15%
14	COC(=O)c1c(NC(=O)Cc2coc3cc(C)cc(C)c23)sc2c1CCC2	-12%	-17%
15	Cc1ccc(Nc2nc(C(N)=O)c(NC(=O)CC(C)C)s2)cc1	197%[activator]	62%[activator]
16	COc1cccc2cc(-c3nc(Nc4cccc(C)c4C)sc3C)c(=O)oc12	-7%	-4%
17	COCCn1c(SCC(=O)NC2CCCC2)nc2c(c1=O)SCC2	5%	1%
18	COc1cc(Cl)c(C)cc1NC(=O)C(C)N1CCN(S(=O)(=O)Cc2ccccc2)CC1 (stereo not drawn)	8%	-3%
19	COc1ccc(OC)c(NC(=O)CN2C(=O)CC(C)Sc3ccccc32)c1 (stereo not drawn)	-7%	16%
20	O=C(O)C(c1c[nH]c2cc(OCc3ccccc3)ccc12)N1CCN(c2cccc(Cl)c2)CC1 (stereo not drawn)	20%	-8%
21	COc1ccccc1CCN[C@H]1CS(=O)(=O)C[C@@H]1S(=O)(=O)c1ccc(F)cc1	-4%	-13%
22	CCc1ccc(C2=NN(C(=O)c3cccs3)C(c3ccc4nccnc4c3)C2)cc1 (stereo not drawn)	197%[activator]	4%
23	CC(=O)N1N=C(c2ccco2)CC1c1ccc2nccnc2c1 (stereo not drawn)	-1%	-5%
24	COc1ccc(C(=O)Nc2cc(-c3nc4ccccc4o3)ccc2C)c(OC)c1	-3%	-13%
25	CCCCC(CC)C(=O)Nc1ccccc1F (stereo not drawn)	2%	6%
26	CC(C)(C)SCC(=O)Nc1cccc(CN2CCCC2)c1	3%	-14%
27	N#Cc1ccccc1COC(=O)c1ccccc1SCC1CCCO1 (stereo not drawn)	34%[activator]	100%[activator]
28	Cc1cc(NC(=O)CSc2nc(Nc3ccccc3)c3ccccc3n2)no1	2%	-2%
29	COc1ccc(-c2nnc3n2N(C(C)=O)C(c2ccc(Cl)c(Cl)c2)=C(C(C)=O)S3)cc1	-16%	-1%
30	Cc1ccc(S(=O)(=O)NCC(=O)OCc2cc(=O)oc3c(C)c(C)ccc23)cc1	-12%	-21%
31	NS(=O)(=O)c1ccc(CCNc2nc3c(-c4cccc(F)c4)nnn3c3ccc(Cl)cc23)cc1	167%[activator]	-1%
32	O=C(NCCc1ccc(Cl)cc1)c1cccn1-c1nnc(N2CCCCC2)s1	-32%	37%[activator]
33	CC(NS(=O)(=O)Cc1ccc(F)cc1)c1ccccn1 (stereo not drawn)	-4%	-10%
34	CCCC(NC(=O)c1sccc1C)c1ccccc1 (stereo not drawn)	?	23%
35	CCOc1cc(/C=C/C(=O)c2ccc(Cl)cc2)ccc1O	54%[activator]	-5%[1.06 µM]
36	Cc1ccc(-n2nc3c(=O)n(C(C)C(=O)NCc4ccccc4C)nc(C)c3c2C)cc1 (stereo not drawn)	?	?
37	CC(C)c1ccc(C(C)NC(=O)Cn2nnn(-c3ccccc3)c2=O)cc1 (stereo not drawn)	-1%	-11%
38	CCOc1ccc(NC(=O)CCn2nc(C)c(S(=O)(=O)N3CCCCC3)c2C)cc1	-3%	11%
39	Cc1ccc(S(=O)(=O)N(CC(=O)N2CCc3ccccc3C2)Cc2c(F)cccc2Cl)cc1	-29%	44%[activator]
40	O=C(Nc1ccc(Br)cc1)c1ccc(Nc2cc(-c3ccccc3)ncn2)cc1	0%	-14%
41	CCOC(=O)c1ccc(-n2c(N)c(C(=O)OC)c3nc4ccccc4nc32)cc1	1%	5%
42	CN(C)S(=O)(=O)c1ccc2c(c1)N(CC(=O)Nc1ccc(F)cc1)C(=O)CS2	-10%	-4%
43	COc1ccc(CCNC(=O)CN(c2ccccc2)S(=O)(=O)N(C)C)cc1OC	13%	-1%
44	Cc1ccc(C)c(S(=O)(=O)n2nc(C)c(S(=O)(=O)N3CCCCCC3)c2C)c1	4%	6%
45	Cc1ccc(C)c(NC(=O)c2ccc3nc(CCc4ccccc4)oc3c2)c1	72%[activator]	17%
46	O=S(=O)(c1cccc(F)c1)N1CCN(Cc2cccc3cccnc23)CC1	-6%	-4%
47	COc1ccc(CNC(=O)C2CCCN(S(=O)(=O)c3cccc4nsnc34)C2)cc1 (stereo not drawn)	12%	38%[activator]
48	COc1ccc2nc(NC(=O)c3nc(SC(C)C)ncc3Cl)sc2c1	20%&-20%	3%&2%
49	O=C(c1ccc2[nH]ccc2c1)N1CCN(S(=O)(=O)c2cccc3nonc23)CC1	2%	24%
50	CCOc1ccc(N/C(=C\C(=O)c2ccccc2)c2ccccc2)cc1	0%	11%
51	Cc1ccc(OCC(=O)Nc2cc(Cl)ccc2C(=O)O)c(C)c1	17%	67%[activator]
52	CCOc1ccccc1C(=O)N(Cc1ccco1)Cc1ccco1	-27%	29%
53	COc1cc(CNC(=O)c2ccc(NC(=O)N3CCCCc4ccccc43)cc2)cc(OC)c1OC	-13%	5%
54	Cn1cc(CC(=O)NCc2cn3ccccc3n2)c2ccccc21	1%	-4%
55	CCOc1cc(CNC(=O)NC2COc3ccc(OC)cc3C2)cc(OCC)c1OCC (stereo not drawn)	0%	-16%
56	NC(=O)CN1c2ccc(Br)cc2-c2ccccc2S1(=O)=O	18%	16%
57	CCCC(=O)Nc1ccc2oc(-c3ccc(Br)c(C)c3)nc2c1	186%[activator]	4%
58	COC(=O)C1(NC(=O)c2cc(F)cc(F)c2)CCCCC1	4%	-5%
59	COc1cc(OC)c(C2=CCN(C(=O)COc3cc(Cl)ccc3Cl)CC2)c(OC)c1	-12%	-27%
60	CCCNC(=S)NC1CCC(NC(=S)NCCC)CC1 (stereo not drawn)	-5%	2%

In the list so far, 3 have bromine:
no.	SMILES	StopGo FLuc	StopGo RLuc
40	O=C(Nc1ccc(Br)cc1)c1ccc(Nc2cc(-c3ccccc3)ncn2)cc1	0%	-14%
56	NC(=O)CN1c2ccc(Br)cc2-c2ccccc2S1(=O)=O	18%	16%
57	CCCC(=O)Nc1ccc2oc(-c3ccc(Br)c(C)c3)nc2c1	186%[activator]	4%

Next compounds
no.	SMILES	StopGo FLuc	StopGo RLuc
61	COc1cccc(CNCCc2cccc(F)c2)c1	11%	7%
62	CCC(CC)NC(=O)/C=C/c1ccc(Cl)cc1	83%[activator]	25%
63	O=C(NCCc1cccc2cccnc12)c1cc[n+]([O-])cc1	2%	-2%
64	Brc1ccc2[nH]c3c(c2c1)CCCC3=NCc1ccccc1	30%[activator]	21%
65	O=C(CN1C(=O)C2(SCC(=O)N2c2cccc(Cl)c2)c2ccccc21)NCCc1ccccc1 (stereo not drawn)	-12%	1%
66	S=P(N1CC1)(N1CC1)N1CC1	-21%[27 µM]	-3%[129 µM]
67	S=C(NCc1ccccc1)Nc1ccc(Br)cc1	0%	-39%
68	COC(=O)C(=O)C1=C(C)OC(N)=C(C#N)C1c1ccccc1 (stereo not drawn)	-6%	-1%
69	O=C(c1cc2ccccc2oc1=O)N1CCSC1c1ccc(Cl)cc1 (stereo not drawn)	-2%	16%
70	CCc1nnsc1C(=O)NC(C)c1ccc(OC2CCCC2)c(OC)c1 (stereo not drawn)	?	?
71	COc1ccc(Cl)cc1S(=O)(=O)N1CCN(C(=O)c2cc(-c3ccc(Br)cc3)n[nH]2)CC1	-15%	-6%
72	COc1ccc(C)cc1NC(=O)c1cc2c(=O)n(Cc3cccnc3)ccc2nc1C	-16%	-7%
73	C#C[C@]1(O)CC[C@H]2[C@@H]3CCC4=CC(=O)CC[C@]4(C)[C@H]3CC[C@@]21C	-6%	-2%&-7%
74	Cc1ccc(COC(=O)CSc2cnc3ccccc3n2)cc1	-1%	-18%
75	CCOc1ccc(-n2c(SCC(=O)N3CCC(C)CC3)nc3c([nH]c4ccccc43)c2=O)cc1	-9%	-15%
76	COc1ccc(NC(=O)Cn2c(=O)n(CCC(C)C)c(=O)c3cccnc32)cc1Cl	-11%	-4%
77	O=C(CSc1nc2c([nH]c3ccccc32)c(=O)n1-c1ccc(F)cc1)Nc1ccc2c(c1)OCCO2	-39%	-16%
78	Cc1ccc(-c2nnc(SCC(=O)NCc3ccccc3)o2)cc1	-10%	-7%
79	COc1ccc(-n2c(C)c(C(C)=O)c3cc(O)ccc32)cc1	-3%	-9%
80	COC(=O)c1ccc(CNC(=O)c2ccccc2-c2ccccc2)cc1	-3%	38%[activator]
81	COc1ccc(C(=O)/C=C/c2ccc(F)cc2)c(OC(=O)c2ccccc2Br)c1	0%	6%
82	Cc1ccc(CNC(=O)CCCn2c(=O)c3ccccc3n(Cc3ccccc3Cl)c2=O)cc1	15%	1%
83	O=C(NC1CCCc2ccccc21)C1CC2CCCC(C1)C2=O (stereo not drawn)	3%	3%
84	Cc1ccc(OCC(O)Cn2nc(-c3cccs3)oc2=O)c(C)c1 (stereo not drawn)	8%	32%[activator]
85	COCCCNC(=O)c1ccc(Cn2c(SCc3ccc(F)cc3)nc3cccnc32)cc1	56%[activator]	-12%
86	CC(C)NC(=O)c1ccccc1OCc1ccc(Cl)cc1	-10%	-9%
87	COc1ccc(-c2nc(Cc3ccccc3Cl)no2)cc1OC	59%[activator]	70%[activator]
88	Cc1ccc(N2CCN(S(=O)(=O)c3cccc4ccccc34)CC2)cc1Cl	-22%	2%
89	COc1cc(-c2nc(-c3nonc3N)no2)cc(OC)c1OC	-5%	-8%
90	CCN(C(=O)CCc1nc(-c2ccc(C)cc2)no1)c1cc(C)ccc1C	-7%	0%

Complete entries, quoted from the list. Order of screens: StopGo FLuc	StopGo RLuc
Cc1ccc(-n2nc3c(=O)n(C(C)C(=O)NCc4ccccc4C)nc(C)c3c2C)cc1 (stereo not drawn) as listed: ?	?
Cc1ccc(N2CCN(S(=O)(=O)c3cccc4ccccc34)CC2)cc1Cl as listed: -22%	2%
O=C(c1c(F)cccc1F)N(Cc1ccc2[nH]ccc2c1)C1CC1 as listed: 0%	63%[activator]
O=S(=O)(c1cccc(F)c1)N1CCN(Cc2cccc3cccnc23)CC1 as listed: -6%	-4%
NC(=O)CN1c2ccc(Br)cc2-c2ccccc2S1(=O)=O as listed: 18%	16%

New compounds follow:
no.	SMILES	StopGo FLuc	StopGo RLuc
91	CC12CC(C)(C)C(C#N)(C(N)=C1C#N)C(=C(C#N)C#N)N2 (stereo not drawn)	-14%	-21%
92	COc1ccc(NC(=O)Cc2c(C)c3ccc(O)cc3oc2=O)cc1OC	5%	11%
93	O=C1CN(C(=O)Cn2c(=O)c3c(ncn3Cc3ccccc3)n(Cc3ccccc3)c2=O)CCN1	0%	1%
94	O=C(Cc1ccsc1)Nc1ccc(Br)cc1F	64%[activator]	10%
95	COc1ccccc1NC(=O)CSc1nc(-c2ccc(C)cc2)nc2c1Cc1c(CO)cnc(C)c1O2	-15%	-14%
96	Cc1ccc(F)cc1NC(=O)c1cnc2ccccc2n1	202%[activator]	9%
97	COc1ccc(S(=O)(=O)N(CC(=O)NCCSc2ccc(C)cc2)c2ccc(C)cc2)cc1	-28%	31%[activator]
98	CCn1c(C)c(/C=C/c2cc[n+](C)cc2)c2ccccc21	?	14µM*
99	Cc1c(C(=O)Nc2ccc(C(C)C)cc2)sc2nc3n(c(=O)c12)CCC3	-1%	-19%
100	Fc1ccccc1-n1ncc2c1ncn1nc(Cc3ccccc3)nc21	151%[activator]	-5%
101	COc1ccc(C2C(C(N)=O)=C(C)Nc3nc(SCc4ccccc4Cl)nn32)cc1OC (stereo not drawn)	-14%	-11%
102	COC(=O)C(C)Oc1c(Br)cc(C=O)cc1OC (stereo not drawn)	9%	4%
103	C=CCNC(=S)NNC(=O)c1cccc(C)c1	0%	13%
104	Oc1ccc(Cl)cc1C=NCc1ccc(F)cc1Cl	0%	1%
105	NS(=O)(=O)c1ccc(N/N=C/c2c(F)cccc2Cl)c([N+](=O)[O-])c1	8%	-30%
106	O=C(COc1ccc2ccccc2c1)NC1CC(=O)N(c2ccccc2)C1 (stereo not drawn)	-15%	-10%

A different layout for 2 compounds above.
Results follow in this order: StopGo FLuc | StopGo RLuc
(51) Cc1ccc(OCC(=O)Nc2cc(Cl)ccc2C(=O)O)c(C)c1
  17% | 67%[activator]
(20) O=C(O)C(c1c[nH]c2cc(OCc3ccccc3)ccc12)N1CCN(c2cccc(Cl)c2)CC1 (stereo not drawn)
  20% | -8%

Screening data: PubChem, National Center for Advancing Translational Sciences (NCATS)
